# MT1-MMP act inh = inhibitors of human MT1-MMP activation; P50281; HT1080 RFP-PRO-GFP cells, GFP/RFP ratio fluorescence, overnight; percent of plate control window, DMSO zero; GFP/RFP ratio change, % at 20 µM; 360,000 tested, 0.061% active; AID 651647;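 active = GFP/RFP ratio change of at least 30% with cell ATP level not reduced by more than half and red fluorescence within 50% of control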; note: strong numbers were not always called active
#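 Material: RFP-PRO-GFP reporter HT1080 cells. Dosing: single-point 20 µM compound, 1% DMSO. Controls: DMSO and RFP-L50D-GFP cell wells. Timing: cells overnight before dosing, compound overnight, 37 °C, 5% CO2. Measure: GFP/RFP fluorescence ratio.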
# CSC inhib = blocks cancer stem cells; 300,000 tested, 1.1% active; AID 2717; inhibition, % at 7.5 µM; cancer stem cell-like cells viability, luminescence;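 active = mean at 75% or more and at least half the replicates too; tested in HMLE shEcad cells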;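 note: 0% = median of negative and 100% = median of positive control wells; the first replicate is given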
# Rce1 inhib = yeast Ras-converting enzyme inhibition. 290,000 tested, 0.27% active. calls only. yeast membranes, quenched prenylated peptide cleavage fluorescence. AID 2563;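 active = fall in fluorescence gain of 50% or more versus controls, with final raw signal at or below 3038400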;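 note: plate controls were neutral control wells for no effect and wells lacking membranes for full effect; tested at 10 µM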
# Target sequence (Q03530 whole entry, looked up): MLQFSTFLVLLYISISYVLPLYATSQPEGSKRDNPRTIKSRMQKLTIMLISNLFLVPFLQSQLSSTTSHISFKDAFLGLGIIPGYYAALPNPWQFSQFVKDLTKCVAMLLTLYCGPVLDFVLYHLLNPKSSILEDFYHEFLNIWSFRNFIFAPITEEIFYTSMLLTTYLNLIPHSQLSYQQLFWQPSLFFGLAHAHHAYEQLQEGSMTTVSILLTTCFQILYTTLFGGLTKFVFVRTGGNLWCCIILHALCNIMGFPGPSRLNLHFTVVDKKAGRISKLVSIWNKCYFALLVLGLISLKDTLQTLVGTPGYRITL
# eIF4H inh = inhibitors of RNA binding by human eIF4H; Q15056; inhibition, % at 35 µM; eIF4H fluorescence polarization binding assay; AID 2012; 290,000 tested, 0.94% active;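 active = 50% or more with normal probe brightness, or confirmed in later tests; about a fifth of its hits are not listed in these tables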;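 note: calls also rest on retests at 20 µM and on dose response follow-up; 0% = protein and probe with vehicle and 100% = probe without protein; strong numbers were not always called active; many hits fall short of the cut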
# Env fusion inh = blocks HIV Env-driven cell-cell fusion. HeLa-JRFL Env/CEM21 cell fusion, luciferase. inhibition, % at 12.3 µM. 360,000 tested, 1.1% active. AID 651610;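 active = mean replicate inhibition score of at least 50 and every replicate individually at or above 50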;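 note: 0% = plate neutral controls and 100% = maraviroc near 300 nM; one replicate is shown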
# Yeast UUG start = yeast start codon fidelity modulation; activity score, % at 18.7 µM; S. cerevisiae UUG-firefly luciferase reporter, luminescence/redox ratio; 350,000 tested, 0.13% active;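 active = replicate mean at a twofold rise or more, about +100% in these data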;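 note: firefly luciferase made from a UUG start codon reports start codon fidelity; reporter light over untreated wells divided by growth signal over untreated wells; some hits fall short of that in this replicate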
# PABP FP inh = PABP-poly(A) binding inhibition; AID 2014; inhibition, % at 35 µM; PABP-poly(A) RNA binding, fluorescence polarization; 290,000 tested, 1% active;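 active = 50% or more with normal probe brightness, or confirmed in later tests; about a fifth of its hits are not listed in these tables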;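 note: calls also rest on retests at 20 µM and on dose response follow-up; controls were probe without protein and protein plus probe with vehicle; some compounds called inactive have numbers as strong as hits; many hits fall short of the cut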
# Target sequence (P11940 whole entry, looked up): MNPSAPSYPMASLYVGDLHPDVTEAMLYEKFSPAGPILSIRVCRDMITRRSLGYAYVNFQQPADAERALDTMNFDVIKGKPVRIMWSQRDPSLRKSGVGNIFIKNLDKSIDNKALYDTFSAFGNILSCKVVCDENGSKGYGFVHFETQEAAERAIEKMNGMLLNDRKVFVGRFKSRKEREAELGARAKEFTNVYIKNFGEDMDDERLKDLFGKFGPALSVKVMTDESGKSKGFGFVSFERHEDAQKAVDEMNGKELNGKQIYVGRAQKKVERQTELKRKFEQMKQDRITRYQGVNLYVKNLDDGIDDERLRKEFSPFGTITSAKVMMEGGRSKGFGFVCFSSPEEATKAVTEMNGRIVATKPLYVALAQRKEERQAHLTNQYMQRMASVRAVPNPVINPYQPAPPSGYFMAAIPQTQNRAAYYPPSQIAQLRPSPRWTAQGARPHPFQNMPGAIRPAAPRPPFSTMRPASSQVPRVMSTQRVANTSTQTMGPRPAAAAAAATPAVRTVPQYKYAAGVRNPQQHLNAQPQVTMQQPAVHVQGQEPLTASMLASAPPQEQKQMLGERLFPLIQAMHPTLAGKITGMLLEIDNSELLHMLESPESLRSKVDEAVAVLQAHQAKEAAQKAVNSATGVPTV
# eIF4H inh retest = further read-out of eIF4H inh, marked with its call; inhibition, %; compound at 20 µM; confirmation average;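 mean of two retest wells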
# PABP FP inh retest = further read-out of PABP FP inh, marked with its call; inhibition, %; compound at 20 µM; confirmation repeats;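 mean of two retest wells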
# MT1-MMP act inh RFP = second read-out of MT1-MMP act inh, no call of its own (marks repeat the call); RFP signal change, %; measured here: RFP expression control read;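 0 = vehicle wells; hits needed this value within 50% of zero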
# * marks the source's active call; other numbers are inactive results; i = inactive; · = not tested or not shown.
SMILES,MT1-MMP act inh,MT1-MMP act inh RFP,CSC inhib,Rce1 inhib,eIF4H inh,Env fusion inh,Yeast UUG start,PABP FP inh,others
CCC(c1nnnn1C(C)(C)C)N1CCN(c2cc(Cl)ccc2C)CC1 (stereo not given),-12.7,-15.4,1.0,i,-12.1,·,6.8,54.8,eIF4H inh retest=13.1;PABP FP inh retest=2.6
Cc1nc(SCc2ccccc2)c([N+](=O)[O-])[nH]1,-0.2,1.9,-1.9,i,-5.8,0.3,-10.0,-4.0,
CC(=O)c1ccccc1NC(=O)CSc1nnc(Cc2csc(C)n2)o1,-1.3,4.9,-5.5,i,·,4.6,·,·,
CC(C)(Oc1ccc(Cl)cc1)C(=O)NC1CCCCC1,5.8,-0.1,-7.2,i,·,11.6,·,·,
COc1ccc(OC)c(C(c2nnnn2Cc2ccco2)N2CCN(C)CC2)c1 (stereo not given),-0.8,1.1,-16.2,i,-4.4,-3.0,·,7.6,
O=C(/C=C/c1ccc(OC2CSC2)cc1)c1ccc(Cl)cc1,-2.5,-9.0,6.4,i,4.3,·,1.5,-1.1,
COCCN1CCn2c(nc3cc(NC(=O)Cn4nc(C)c5ccccc5c4=O)ccc32)C1,-2.1,1.2,3.9,i,-11.6,7.9,-9.5,-16.9,
CC[C@@]1(C(=O)OC)N[C@H](CN(C)C(=O)Nc2ccc(F)cc2)[C@@H]2C(=O)N(Cc3ccccc3)C(=O)[C@@H]21,1.5,0.6,·,·,·,94.1*,-4.1,·,
CC(C)C(C(=O)NCc1ccco1)N(CC1CCCO1)C(=O)CNS(=O)(=O)c1ccc(F)cc1 (stereo not given),4.4,2.2,2.2,i,-6.8,5.5,6.2,-0.8,
N=C1C(c2nc3ccccc3c(=O)[nH]2)=C(O)CN1CCO,-8.1,-5.0,-13.4,i,-4.5,-32.7,13.7,-2.9,
O=S(=O)(Nn1c(O)c(C=C2N=c3ccccc3=N2)sc1=S)c1ccccc1,1.2,5.3,16.8,i,4.4,1.6,-11.4,16.3,
CCCCn1c(=O)[nH]c(=O)c2c1nc(COc1ccc(C#N)cc1)n2CCC,2.5,-4.1,-18.3,i,1.2,·,·,-1.0,
CC1(C)CC(=O)c2sc(NC(=O)CN3CCCCC3)nc2C1,0.7,4.6,-2.2,i,2.9,·,-1.6,-1.9,
Cc1c(Br)ccc(NC(=O)COc2ccccc2C(N)=O)c1C,1.2,-10.3,-7.9,i,-4.8,-6.0,-8.4,-11.4,
O=C1OC(c2ccc(F)cc2)=N/C1=C\C=C/c1ccccc1,5.1,7.2,1.6,i,-5.1,-8.7,·,-2.2,
CN(C(=O)CN1C(=O)S/C(=C\c2ccc(Cl)cc2)C1=O)C1CCS(=O)(=O)C1 (stereo not given),1.3,0.0,-4.2,i,-14.2,6.3,-15.7,-8.0,
COc1ccc2cc(C)c3nnc(SCC(=O)Nc4nc(-c5ccccc5)cs4)n3c2c1,6.8,7.5,2.6,i,-11.7,-94.0,-18.2,-5.7,
CC1=CCC(C(=O)O)(C(=O)N/N=C/c2cccs2)C(c2ccc(F)cc2)C1 (stereo not given),3.1,-1.1,-7.7,i,-11.1,-50.1,-3.8,-10.8,
O=C1N(Cc2cccnc2)C[C@@H]2C[C@@H](c3ccc(C(F)(F)F)cc3)N3CCC[C@@]123,1.5,4.0,-14.1,i,-3.8,6.3,·,-7.8,
CCOc1ccccc1N=CC1=C(O)CC(c2ccccc2)CC1=O (stereo not given),3.0,0.0,4.7,i,12.3,1.0,-4.8,-13.6,
COc1ccccc1C(=O)Nc1ccccc1N1CCN(S(C)(=O)=O)CC1,1.3,-1.3,-13.1,i,-1.8,·,-3.2,-3.2,
Cc1ccc(C(=O)N/N=C\c2ccc(-c3ccc(Cl)c(Cl)c3)o2)cn1,4.0,-9.4,75.9*,i,-5.4,-16.3,-32.7,-8.4,
CCOc1cc(/C=N\NC(=O)OC)ccc1OC(=O)c1ccco1,-1.0,2.4,5.6,i,-2.6,-8.6,·,-14.1,
CN(CC(=O)NC1CCCCCC1)S(=O)(=O)c1cnc[nH]1,-1.2,3.0,-5.1,i,4.7,-6.2,-12.8,-5.0,
CC(=O)c1cccc(NC(=O)N2CCC(c3nnc(SCC(N)=O)n3C)CC2)c1,4.6,-2.2,6.7,i,-0.8,-28.1,-5.6,8.9,
N#Cc1nc(-c2ccccc2)oc1N1CCCCC1,7.0,-1.9,-8.4,i,-8.3,·,-9.2,9.9,
CC(C)NC(=O)COC(=O)c1ccc(Cl)c(S(=O)(=O)N2CCCC2)c1,1.1,1.8,-14.9,·,9.8,·,0.8,15.5,
Cc1ncc(CO)c(/C=N/Nc2cccc(Cl)n2)c1O,4.8,1.5,-5.3,i,15.2,-12.7,-3.6,20.7,
Cc1c(C(=O)Nc2ccccn2)oc2ccccc12,-8.4,-4.8,1.7,i,-10.8,·,-22.7,-7.8,
COc1ccccc1CNS(=O)(=O)c1cc(C)ccc1OC,-0.3,1.0,-14.4,i,10.3,·,2.1,-3.2,
OC(c1cccc(Cl)c1)c1ncc(-c2ccc(Oc3ccccc3)cc2)[nH]1 (stereo not given),-0.2,-23.6,·,·,·,17.6,-8.5,·,
Cc1cccc(C)c1NC(=O)c1sccc1SCC#N,9.4,3.3,-0.3,·,-5.8,·,8.3,-0.9,
CC(C(=O)NC1=NCCS1)(C(F)(F)F)C(F)(F)F,17.1,8.4,-0.2,i,1.6,·,-20.6,-4.4,
O=C1C=C(c2ccc(-c3ccccc3)c(F)c2)C[C@@H](c2ccc(F)cc2)C1,2.8,-4.0,28.1,·,·,9.0,-15.0,·,
COc1ccc(C)cc1-n1c(=O)c2ccccc2c2ccccc2c1=O,4.5,-3.8,·,i,-5.8,0.4,·,-4.8,
CC(C)(C)C1CCC(C(=O)NNC(=O)c2ccncc2)CC1 (stereo not given),7.6,-8.5,0.4,i,·,-10.6,-2.9,·,
O=C(Nc1ccc(OC(F)F)c(Cl)c1)c1cccc(OC(F)F)c1,8.1,-3.2,31.8,i,-12.3,·,5.6,-10.4,
Cc1cccc(N2C(=O)C(O)=C(C(=O)c3cccs3)C2c2ccccc2)n1 (stereo not given),1.2,2.0,-0.1,i,-7.4,-5.4,·,0.5,
O=C(CN(CCO)Cc1ccccc1)N1CCN(S(=O)(=O)c2ccccc2)CC1,0.3,2.1,·,·,·,i,-4.9,·,
CC(C)CCNC(=O)c1cc(-c2ccco2)nc2ccccc12,-9.6,-3.7,-8.8,i,-5.9,-2.1,-25.9,12.3,
CCc1nnc(NC(=O)C2CC(=O)N(C3CCCC3)C2)s1 (stereo not given),-0.5,5.6,-10.9,i,5.4,3.4,-2.8,13.9,
CC1(C)Cc2c(sc3nc(SCC(=O)NCc4ccco4)n(-c4ccccc4)c(=O)c23)CS1,-2.3,-3.3,15.2,i,7.7,·,·,-9.2,
NC(COCc1ccccc1)c1csc(Nc2nccc(C(F)(F)F)n2)n1 (stereo not given),-1.9,-3.9,·,·,·,-16.6,-3.5,·,
O=C(c1ccc(F)c(F)c1)N1CCCc2ccccc21,-0.4,1.9,-9.5,i,4.6,9.6,-8.0,-6.2,
CC(C)(Oc1ccc(Cl)cc1)C(=O)Nc1ccc(S(=O)(=O)Nc2ncccn2)cc1,1.0,1.1,9.9,i,10.1,1.6,-6.9,3.4,
COc1cc2ccccc2cc1C(=O)OCC(=O)N1CCOCC1,2.8,-0.5,-2.2,i,-8.6,·,15.6,-9.1,
Cc1ccc(CNC(=S)Nc2ccc(C)c([N+](=O)[O-])c2)cc1,0.8,0.1,·,i,-9.1,-3.2,·,-5.8,
CC(OC(=O)c1ccc2ncsc2c1)C(=O)NC1CCCCC1C (stereo not given),1.8,-0.2,0.5,i,·,-20.1,-8.0,·,
COC(=O)[C@H]1C[C@@]2(O)CN(S(=O)(=O)c3ccc(C)cc3)C[C@@]2(OC(=O)NCc2ccccc2)C[C@H]1C(=O)OC,3.0,2.7,·,·,·,-39.6,-17.0,·,
Cn1cc(CCC(=O)NC2CC2)c2ccccc21,6.8,5.1,-18.7,i,2.5,-2.6,-14.4,1.8,
O=C(NCCc1ccccc1)c1cccc2c1C(=O)c1ccc(N3CCOCC3)cc1S2(=O)=O,-20.1,2.7,·,·,·,-13.9,-4.0,·,
O=C(O)CCCN1C(=O)C2C3CCC(O3)C2C1=O (stereo not given),6.1,8.5,11.4,i,2.9,·,-7.3,-8.6,
CCOc1cccc2c1OC1(CCCCC1)N1N=C(c3cccnc3)CC21 (stereo not given),1.8,1.4,-2.4,i,-1.7,-21.9,·,-4.4,
O=C(c1ccncc1)N(c1ccc2oc3c(c2c1)CCCC3)S(=O)(=O)c1cccc([N+](=O)[O-])c1,3.3,3.4,·,i,0.1,-19.6,·,7.2,
CCOC(=O)C1(C)NC(c2ccc(OC)c(OC)c2)C2C(=O)N(c3cccc(C(C)=O)c3)C(=O)C21 (stereo not given),-0.4,6.9,·,·,·,6.5,3.5,·,
COc1ccc([N+](=O)[O-])cc1N(CC(O)CN1CCCC1)S(=O)(=O)c1ccc(C)cc1 (stereo not given),-4.3,1.3,0.4,·,-6.1,-7.2,8.7,-9.1,
O=C(/C=C\c1ccc2c(c1)OCO2)Nc1c2c(nn1-c1ccc(Cl)cc1)CSC2,-10.0,-8.8,-2.9,i,-4.5,-0.3,-14.3,-3.3,
Cc1nc(SCC(=O)NC(=O)NCCC(C)C)c2c(-c3cccs3)csc2n1,-10.4,-16.7,17.7,i,1.1,·,·,-9.3,
COc1cc2ccccc2cc1C(=O)Nc1ccc(CN2CCOCC2)cc1,0.8,-2.0,·,i,2.8,-7.9,-17.3,-2.4,
O=C(CN1CCSCC1)N/N=C/c1ccc(F)c(F)c1,2.6,2.1,-5.8,i,3.5,-23.3,-15.7,-0.4,

# 4 records picked at random from the list so far, as already listed:
SMILES,MT1-MMP act inh,MT1-MMP act inh RFP,CSC inhib,Rce1 inhib,eIF4H inh,Env fusion inh,Yeast UUG start,PABP FP inh,others
CCOc1cccc2c1OC1(CCCCC1)N1N=C(c3cccnc3)CC21 (stereo not given),1.8,1.4,-2.4,i,-1.7,-21.9,·,-4.4,
CCCCn1c(=O)[nH]c(=O)c2c1nc(COc1ccc(C#N)cc1)n2CCC,2.5,-4.1,-18.3,i,1.2,·,·,-1.0,
O=C(NCCc1ccccc1)c1cccc2c1C(=O)c1ccc(N3CCOCC3)cc1S2(=O)=O,-20.1,2.7,·,·,·,-13.9,-4.0,·,
O=C(CN(CCO)Cc1ccccc1)N1CCN(S(=O)(=O)c2ccccc2)CC1,0.3,2.1,·,·,·,i,-4.9,·,

# The listing continues.
SMILES,MT1-MMP act inh,MT1-MMP act inh RFP,CSC inhib,Rce1 inhib,eIF4H inh,Env fusion inh,Yeast UUG start,PABP FP inh,others
O=C(C[C@@H]1C/C=C/CC[C@@H](Cc2ccc(F)cc2)C(=O)O[C@@H](c2ccccc2)CNC1=O)NCCO,-0.1,0.1,-10.0,·,·,1.8,13.9,·,
Cc1c(O)c(CN2CCCC2)cc2c1oc(=O)c1ccccc12,7.9,5.8,9.4,i,-9.5,-67.7,0.1,-4.5,
Cc1ccc(C(=O)N2CCN(c3ccc(NC(=O)c4cccnc4)cc3)CC2)cc1,-8.2,-6.5,11.8,i,-0.1,16.7,-5.3,-4.0,
Cc1cc(C)cc(NC(=O)C(=S)NCc2ccccc2)c1,0.8,-0.8,9.4,i,-2.9,14.6,-20.9,9.6,
Cc1noc(C)c1-c1ccc2ncnc(NCC3CCCCN3C)c2c1 (stereo not given),16.1,6.0,13.3,·,·,9.5,-14.1,·,
O=C(NC(=S)Nc1ccc(NC(=O)c2cccs2)cc1)c1ccc([N+](=O)[O-])cc1,6.5,2.0,9.9,i,8.8,·,-16.3,4.6,

# This is a random part of the collection; overall some 2.9% were active at least once.
